Screens deposited in PubChem BioAssay by ICCB-Longwood Screening Facility, Harvard Medical School.
Anaer choline gr: inhibitors of anaerobic choline-dependent gram-negative bacterial growth; Gram-negative bacterium anaerobic choline minimal medium, absorbance growth; active compounds read low; many inactives read as strong as hits in the columns shown; calls only; 55,000 compounds, 0.2% hits; AID 1963822;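 active = growth z-score on choline under -2 at 7 or 20 h with little or no fall on glycerol, limits in tiers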;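 also: stock transfer was 300 nL into about 50 µL; the organism is E. coli; final concentration not given here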
Anaer choline gr early: recorded beside Anaer choline gr, whose call it bears; z-score; measured here: choline growth z-score, timepoint 1;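 score of optical density at 7 h as mean of two plates; lower means less growth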
Active calls of the source: *; i = inactive; & = joins results of further samples. A portion of the library. The share of hits here may be higher or lower than overall.

Anaer choline gr | Anaer choline gr early | SMILES
i | -0.1 | O=C(c1ccc(-c2noc(C3CC3)n2)cc1)N1CCN(c2nc3cccnc3o2)CC1
i | -0.45 | CCC(Oc1ccc(=O)n(-c2cc(Cl)ccc2C)n1)C(=O)NCc1cc(OC)ccc1OC (stereo unspecified)
i | -0.43 | CCC(C)NS(=O)(=O)c1ccc2c(c1)N(Cc1noc(C3CCC3)n1)C(=O)CO2 (stereo unspecified)
i | -0.92 | O=C(CN1C(=O)CCCc2ccccc21)NCCCN1CCCC1
i | 1.13 | COC(=O)c1ccccc1NC(=O)CN1CCN(c2ccc(F)cc2)CC1
i | -0.45 | O=C(NC1CCCCC1)c1ccc2cn[nH]c2c1
i | 0.5 | Cc1noc2c1C(c1ccc(O)c(O)c1)C1=C(CC(C)(C)CC1=O)N2 (stereo unspecified)
i | 0.98 | COC(=O)c1c(NC(=O)C2Cc3ccc(C)cc3C(=O)O2)sc2c1CCCC2 (stereo unspecified)
i | 1.12 | CCN(CC)S(=O)(=O)c1ccc(NC(=O)N2CCCC(C(=O)Nc3ccc(Cl)cc3)C2)s1 (stereo unspecified)
i | -1.01 | Cc1ccc(-c2cc(N3CCc4ccccc43)nc(C)n2)cc1
i | 0.42 | CC[C@@H]1OC(=O)C[C@H](O)[C@@H](C)[C@@H](O[C@@H]2O[C@H](C)[C@@H](O[C@H]3C[C@@](C)(O)[C@@H](O)[C@H](C)O3)[C@H](N(C)C)[C@H]2O)[C@@H](C=O)C[C@@H](C)C(=O)/C=C/C(C)=C\[C@@H]1CO[C@H]1O[C@@H](C)[C@H](O)[C@H](OC)[C@@H]1OC
i | -2.21 | O=C(NCc1ccc(Cl)cc1)c1ccc(CSc2nc3ccncc3[nH]2)cc1
i | -0.6 | C=CCNC(=O)CN1C(=O)CSc2ccc(C(=O)N(CC)CC)cc21
i | 0.17 | Nc1c(-c2nc(-c3ccc(Br)cc3)cs2)nnn1-c1cc(F)ccc1F
i | -1.15 | O=C(NC1CCCC1)c1cncc(NS(=O)(=O)c2ccc(Cl)cc2)c1
i | 0.23 | COc1ccccc1Oc1cc(-c2cccc(C(=O)Nc3cc(C)cc(C)c3)c2)ncn1
i | 0.02 | COc1ccccc1N1CCN(C(=O)CN(c2ccccc2OC)S(C)(=O)=O)CC1
i | -0.12 | COC(=O)c1cnn(-c2ccc(C(=O)Nc3ccc4c(c3)CN(Cc3ccccc3)C4)cc2)c1N
i | -0.35 | Cc1ccc(CNC(=O)C2CCN(c3ncccc3-c3nc(-c4cccc(C)c4)no3)CC2)cc1
i | 0.24 | O=C(NCC1CCCO1)N1CCCn2nc(-c3ccc(C(F)(F)F)cc3)cc2C1 (stereo unspecified)

Other records:
Anaer choline gr | Anaer choline gr early | SMILES
i | 0.17 | CCn1c(=O)c(-c2noc(C(=O)NCC3CCCO3)n2)nn(-c2ccccc2)c1=O (stereo unspecified)
i | -1.67 | CCOc1ccc(CCNC(=O)c2ccc(Cl)c(-n3c(C)nc4cccnc43)c2)cc1OCC
i | -0.45 | COc1ccc(-c2noc(-c3ccc(NC(=O)C4CC(=O)N(Cc5ccccc5)C4)cc3)n2)cc1 (stereo unspecified)
i | -0.38 | CCCCNC(=O)c1cc(-c2ccccn2)nc2ccc(S(=O)(=O)N3CCOCC3)cc12
i | 2.23 | Cc1ccccc1C1CC(=O)Nc2cc3c(cc21)OCO3 (stereo unspecified)
i | 0.78 | COc1ccc(NC(=O)NC2CCN(c3ccc(F)cc3)C2=O)cc1OC (stereo unspecified)
i | -0.22 | Cc1c(N2CCC(C(=O)Nc3ccc4c(c3)OCCO4)CC2)c(=O)n(C)c(=O)n1-c1ccccc1
i | -0.56 | CCCCC[C@H](O)C/C=C1/C(=O)C=C[C@@H]1C/C=C\CCCC(=O)O
i | 0.45 | Cc1ccc(C(=O)Cn2c(=O)n3nc(-c4cccc(C)c4)nc3c3ccccc32)cc1
i | -1.37 | C=CCN1CC(c2nc3ccccc3n2CC(O)COc2cccc(C)c2)CC1=O (stereo unspecified)
i | 0.65 | COc1cccc(Nc2ncnc3sc(C)c(S(=O)(=O)N4CCCCC4)c23)c1
i | 0.13 | CN(CCc1noc(-c2ccc(C(=O)N3CCCC3)cc2)n1)C(=O)Nc1ccc2c(c1)OCCO2
i | -1.14 | Cc1cc(C)cc(NC(=O)N2CCN(c3cc(=O)n4nc(-c5ccccc5C)sc4n3)CC2)c1
i | 0.59 | Cc1ccc(S(=O)(=O)Nc2cncc(C(=O)NC3CCCCC3C)c2)cc1 (stereo unspecified)
i | -1.04 | O=C(NCCN1CCCCC1)c1cccn1-c1cccnc1
i | 1.69 | COc1ccc(C2=Nc3ccccc3N=C(SCC(=O)Nc3ccc4c(c3)OCO4)C2)cc1
i | 0.57 | CCCC[C@H](CCC(=O)O)NC(=O)CCCCCCc1ccccc1
i | -0.24 | CS(=O)(=O)Nc1ccc(C2(C(=O)NCc3ccco3)CCC2)cc1
i | 0.1 | Clc1cccc2nc3n(c12)CCN(C1CCCCC1)C3
i | -0.16 | COc1cccc(C(=O)N2CCc3c([nH]c4ccc(OC)cc34)C2c2ccc(F)cc2)c1 (stereo unspecified)

The list continues.
Anaer choline gr | Anaer choline gr early | SMILES
i | -0.54 | CCN(CC)C(=O)CCn1cnc2oc(C)c(C)c2c1=O
i | 1.5 | Cc1ccc(C)c(Nc2nc(C(N)=O)c(NC(=O)c3ccc(C)nc3Cl)s2)c1
i | 0.33 | Cc1ccc(S(=O)(=O)N2CCC(c3ccncc3)CC2)cc1
i | -1.19 | Cc1[nH]c(C)c(S(=O)(=O)N2CCN(c3ccccn3)CC2)c1C(=O)N1CCCCC1
i | 0.51 | COCC1CCN(C(=O)CCC2CCN(c3cc(NC4CC4)ncn3)CC2)CC1
i | -0.27 | CCOC(=O)c1c(C)[nH]c(C(=O)N2CCCC(C(=O)NCCCN3CCOCC3)C2)c1C (stereo unspecified)
i | 0.9 | COC(=O)c1sccc1NC(=O)c1cc2c([nH]c1=O)CC(c1ccc(OC)cc1)CC2=O (stereo unspecified)
i | 0.81 | Cc1nc(-c2ccc(-c3noc(C4CCC4)n3)cc2)cs1
i | 1.07 | Cn1c(=O)c(-c2noc(C(=O)N3CCc4ccccc4C3)n2)nn(-c2ccccc2)c1=O
i | -1.23 | O=C(Nc1ccc(N2CCn3c(nc4cc(Cl)ccc43)C2)cc1)C1CCCCC1
i | 1.05 | O=C(Cn1nc2c(N3CCOCC3)nccn2c1=O)Nc1ccc(Br)cc1F
i | -1.57 | Cc1nc2ccc(S(=O)(=O)CCC(=O)NCc3ccc(Cl)cc3)cc2s1
i | 0.81 | CN(C)c1oc(-c2ccc(S(=O)(=O)N3CCCCC3)cc2)nc1C#N
i | -0.26 | CCCCOc1ccc(C2CC(=O)Nc3c2c(C)nn3-c2ccc3nnc(C)n3n2)cc1 (stereo unspecified)
i | 0.87 | Cc1ccccc1C1CC(=O)c2cnc(N)nc2C1 (stereo unspecified)
i | -0.07 | CCC(=O)Nc1ccc2c(c1)nc(Cn1nc(C)cc1C)n2CC
i | 0.01 | O=C(COc1ccc(Br)cc1)NCC1(N2CCOCC2)CCCCC1
i | 0.05 | Cc1ccc(CNS(=O)(=O)c2c(C)[nH]c(C)c2-c2nnc(C3CC3)o2)o1
i | 1.03 | Cc1cc2n(n1)CCCN2C(=O)Nc1ccc(C)c(Cl)c1
i | 0.79 | CSc1ccc(NC(=O)NC2CCN(c3ccc(F)cc3)C2=O)cc1 (stereo unspecified)

Continued, starting with the last 5 of the part before.
Anaer choline gr | Anaer choline gr early | SMILES
i | -0.07 | CCC(=O)Nc1ccc2c(c1)nc(Cn1nc(C)cc1C)n2CC
i | 0.01 | O=C(COc1ccc(Br)cc1)NCC1(N2CCOCC2)CCCCC1
i | 0.05 | Cc1ccc(CNS(=O)(=O)c2c(C)[nH]c(C)c2-c2nnc(C3CC3)o2)o1
i | 1.03 | Cc1cc2n(n1)CCCN2C(=O)Nc1ccc(C)c(Cl)c1
i | 0.79 | CSc1ccc(NC(=O)NC2CCN(c3ccc(F)cc3)C2=O)cc1 (stereo unspecified)
i | 0.19 | NC(=O)c1c(NC(=O)CN2C(=O)c3ccccc3S2(=O)=O)sc2c1CCCC2
i | 0.34 | Cc1ccc(S(=O)(=O)N(Cc2nc3nc(C)cc(C)n3n2)c2ccccc2)cc1
i | -1.4 | CCc1ccc(NC(=O)N2CCC(n3c(C)nc4cc(C(=O)N5CCCC5)ccc43)CC2)cc1
i | -0.98 | CCOc1ccccc1Nc1c2c(nc3ncnn13)CCC2
i | 0.29 | CCc1nc(CN2C(=O)COc3ccc(S(=O)(=O)NCCC4=CCCCC4)cc32)no1
i | 1.01 | COc1ccc(CNC(=O)c2ccc3c(=O)nc4c(-c5ccccc5)n[nH]n4c3c2)cc1
i | -1&0.36&-0.54 | O=C1NC(=O)C(c2ccccc2[N+](=O)[O-])=C1Nc1ccc(O)c(Cl)c1
i | 0.82 | Cc1ccc(Cn2c(=O)c3c(cnn3C)n3c(SCC(N)=O)nnc23)cc1
i | 1.38 | COc1ccc(NC(=O)C2CC(=O)N(c3cccc(-c4noc(C)n4)c3)C2)cc1 (stereo unspecified)
i | 0.33 | CCOc1ccc(-c2c(C)nn3c(C)c(C(=O)NC4CCC(C)CC4)cnc23)cc1OCC (stereo unspecified)
i | -0.05 | C=C(N)N[C@@H](CCC(=O)O)C(=O)O
i | 0.55 | CCN(CC)CCn1c(NCc2ccc(OC)cc2)nc2ccccc21
i | 1.26 | Cc1nn(-c2ccccc2)c2sc(C(=O)OCCOc3ccccc3)cc12
i | 1.26 | O=C(Cn1cc(-c2ccccc2)c2ncnc(N3CCCCC3)c21)Nc1ccccc1
i | 0.6 | CN(C)c1ccc(CN(CC2CCCO2)C(=O)COc2ccccc2)cc1 (stereo unspecified)
i | -1.04 | O=c1c(S(=O)(=O)c2cccc(F)c2)c[nH]c2c(F)ccc(Cl)c12
i | 0.12 | Cc1ccc(Cc2nc(CCNS(=O)(=O)c3cc(C)c(C)cc3C)n[nH]2)cc1
i | 0.67 | COc1ccc(Cl)cc1S(=O)(=O)Nc1cccc(-c2ccc(N3CCOCC3)nn2)c1
i | -2.8 | O=C1c2ccccc2C(Nc2cccnc2)N1Cc1ccc2c(c1)OCO2 (stereo unspecified)
i | -0.02 | Cc1cc2oc(=O)n(C)c2cc1NC(=O)c1ccccc1

2 of these compounds, set out differently.
mol: CN(C)c1ccc(CN(CC2CCCO2)C(=O)COc2ccccc2)cc1 (stereo unspecified)
  Anaer choline gr: i
  Anaer choline gr early: 0.6
mol: NC(=O)c1c(NC(=O)CN2C(=O)c3ccccc3S2(=O)=O)sc2c1CCCC2
  Anaer choline gr: i
  Anaer choline gr early: 0.19

(next part)
Anaer choline gr | Anaer choline gr early | SMILES
i | -1.59 | OC(CN1CCN(c2ccccc2Cl)CC1)c1ccc2c(c1)OCO2 (stereo unspecified)
i | 0.49 | CC1CCC(NC(=O)C2Oc3ccccc3NC2=O)CC1 (stereo unspecified)
i | 0.11 | CC1Cc2ccccc2N1C(=O)Cc1csc(NC(=O)Nc2ccccc2)n1 (stereo unspecified)
i | 0.92 | Cc1ccc(CSc2nnc3c(=O)n(-c4ccc(Br)cc4)ccn23)cc1
i | -0.89 | CCN1CCN(c2cc(C)nc3nc(-c4ccc(C(C)(C)C)cc4)nn23)CC1
i | -0.9 | CC(C)Cn1c(=O)c2sccc2n2c(SCC(=O)NCCC3=CCCCC3)nnc12
i | -0.74 | CCS(=O)(=O)Nc1ccc(C2(C(=O)N3CCCC3)CCCCC2)cc1
i | 0.33 | COc1ccc(-c2noc(-c3ccccc3OCC(=O)NCC3CCCO3)n2)cc1 (stereo unspecified)
i | 1.3 | O=C(Nc1sc2c(c1C(Nc1ccccn1)c1cccnc1)CCCC2)c1ccccc1 (stereo unspecified)
i | 0.27 | CCCCNc1nc(NCC)nc(-n2cnc(SC)n2)n1
i | 0.59 | Cc1cc(=O)n2c(n1)NC(=NCc1ccccc1)NC2c1ccccc1 (stereo unspecified)
i | 0.03 | CCCn1c(=O)[nH]c2nc(-c3ccc(S(=O)(=O)O)cc3)[nH]c2c1=O
i | 0.26 | O=C(NCc1nc2cccnc2n1Cc1ccccc1)c1ccccc1Cl
i | 2 | COc1ccc(NC(=O)c2scc(-c3ccccc3)c2S(=O)(=O)N(C)c2ccc(C)cc2)cc1
i | -2.1 | CC(C)CCNC(=O)C1CCCN1C(=O)c1ccc(NS(=O)(=O)c2ccc(Cl)cc2)cc1 (stereo unspecified)
i | -0.07 | CCc1c(C)nc2ncnn2c1NC(C)C
i | 0.45&0.61&-0.32 | Cn1c(=O)c2c(ncn2C)n(C)c1=O
i | 0.42&0.8&0.46&0.66 | O=C(O)CCc1nc(-c2ccccc2)c(-c2ccccc2)o1
i | 0.44 | CCOC(=O)C1CCCN(c2nc3c(S(=O)(=O)c4ccc(C(C)C)cc4)nnn3c3ccccc23)C1 (stereo unspecified)
i | -0.49 | COC(=O)c1ccccc1NC(=O)CN1C(=O)CSc2c1c(C)nn2-c1ccccc1

Continuation.
Anaer choline gr | Anaer choline gr early | SMILES
i | -0.44 | CCCNC(=O)Nc1cccc(-c2noc(-c3ccc(Cl)cc3)n2)c1
i | -1.41 | O=C(CCSCc1cnn(-c2ccccc2)c1-n1cccc1)NCCN1CCN(c2ccccc2F)CC1
i | -0.17 | CCCC(O)c1nc2ccccc2n1CC(=O)N(c1ccccc1)C(C)C (stereo unspecified)
i | 0.37 | CS(=O)(=O)Nc1cc(C(=O)N2CCN(CC(=O)N3CCCC3)CC2)ccc1N1CCNCC1
i | 0.65 | CCOC(=O)c1c(NC(=O)NCc2cccn2Cc2ccc(Cl)cc2)sc2c1CCCC2
i | 0.62 | Cc1cc2nc(CN3CCN(c4ccccc4F)CC3)c(=O)[nH]c2cc1C
i | -0.51 | Cc1ccc(-n2ccc(=O)c(-c3nc(-c4ccc(F)c(Br)c4)no3)n2)cc1
i | -0.54 | CC1CC(C)CN(CC2CCN(C(=O)Nc3cccc(F)c3)CC2)C1 (stereo unspecified)
